Screens: PubChem BioAssay, several laboratories
Rce1 inhib = yeast Rce1p protease inhibitors, primary screen, biochemical, fluorescence, cell-free homogeneous. CAAX prenyl protease 2 (Saccharomyces cerevisiae (strain ATCC 204508 / S288c)), Q03530. yeast membranes, quenched prenylated peptide cleavage fluorescence. calls only. 290,000 compounds, 0.27% hits. AID 2563, 2010;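 active = fall in fluorescence gain of 50% or more versus controls, with final raw signal at or below 3038400; inconclusive = same 50% fall but final raw signal above 3038400; inactive = fall in fluorescence gain under 50%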;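 also: plate controls were neutral control wells for no effect and wells lacking membranes for full effect; tested at 10 µM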
Env fusion inh = inhibitors of HIV-1 Env-driven cell-cell fusion, primary screen, HeLa-JRFL effector, CEM21 target cells, luciferase; inhibition, % at 12.3 µM; 360,000 compounds, 1.1% hits;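 active = mean replicate inhibition score of at least 50 and every replicate individually at or above 50; inconclusive = only one of the two criteria met; inactive = mean below 50 and not all replicates reaching 50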;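 also: 0% = plate neutral controls and 100% = maraviroc near 300 nM; one replicate is shown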
MT1-MMP act inh = blockers of MT1-MMP proenzyme processing, primary screen, HT1080 RFP-PRO-GFP cells, GFP/RFP fluorescence | Matrix metalloproteinase-14 (Homo sapiens), P50281 | GFP/RFP ratio fluorescence, overnight; percent of plate control window, DMSO zero | GFP/RFP ratio change, % at 20 µM | 360,000 compounds, 0.061% hits;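 active = GFP/RFP ratio change of at least 30% with cell ATP level not reduced by more than half and red fluorescence within 50% of control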; also: strong numbers were not always called active
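Compound: 20 µM single dose, 1% DMSO / System: HT1080 RFP-PRO-GFP cells / Controls: DMSO and RFP-L50D-GFP cell wells / Read-out basis: GFP/RFP fluorescence ratio / Schedule: overnight compound exposure at 37 °C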
eIF4H inh = human eIF4H binding inhibitors, primary screen, translation initiation inhibitor project, biochemical, uHTS, fluorescence polarization; eIF4H fluorescence polarization binding assay; 290,000 compounds, 0.94% hits; inhibition, % at 35 µM; Eukaryotic translation initiation factor 4H (Homo sapiens), Q15056;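 active = 50% or more with normal probe brightness, or confirmed in later tests; inconclusive = above 50% with abnormal brightness, or retests that disagree; inactive = below 50% or failed in later tests; about a fifth of its hits are not listed in these tables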;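 also: calls also rest on retests at 20 µM and on dose response follow-up; 0% = protein and probe with vehicle and 100% = probe without protein; strong numbers were not always called active; many hits fall short of the cut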
Yeast UUG start = modulators of yeast start codon fidelity, primary screen, whole organism, S. cerevisiae, single point, plate reader | S. cerevisiae UUG-firefly luciferase reporter, luminescence/redox ratio | activity score, % at 18.7 µM | 350,000 compounds, 0.13% hits | AID 602363, 2012;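 active = replicate mean at a twofold rise or more, about +100% in these data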;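 also: firefly luciferase made from a UUG start codon reports start codon fidelity; reporter light over untreated wells divided by growth signal over untreated wells; some hits fall short of that in this replicate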
PABP FP inh = PABP poly(A) RNA binding inhibitors, primary screen, biochemical, fluorescence polarization, uHTS | Polyadenylate-binding protein 1 (Homo sapiens), P11940 | inhibition, % at 35 µM | 290,000 compounds, 1% hits | AID 2014, 2009;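 active = 50% or more with normal probe brightness, or confirmed in later tests; inconclusive = above 50% with abnormal brightness, or retests that disagree; inactive = below 50% or failed in later tests; about a fifth of its hits are not listed in these tables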;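 also: calls also rest on retests at 20 µM and on dose response follow-up; controls were probe without protein and protein plus probe with vehicle; some compounds called inactive have numbers as strong as hits; many hits fall short of the cut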
Target sequence (P11940 whole entry, looked up): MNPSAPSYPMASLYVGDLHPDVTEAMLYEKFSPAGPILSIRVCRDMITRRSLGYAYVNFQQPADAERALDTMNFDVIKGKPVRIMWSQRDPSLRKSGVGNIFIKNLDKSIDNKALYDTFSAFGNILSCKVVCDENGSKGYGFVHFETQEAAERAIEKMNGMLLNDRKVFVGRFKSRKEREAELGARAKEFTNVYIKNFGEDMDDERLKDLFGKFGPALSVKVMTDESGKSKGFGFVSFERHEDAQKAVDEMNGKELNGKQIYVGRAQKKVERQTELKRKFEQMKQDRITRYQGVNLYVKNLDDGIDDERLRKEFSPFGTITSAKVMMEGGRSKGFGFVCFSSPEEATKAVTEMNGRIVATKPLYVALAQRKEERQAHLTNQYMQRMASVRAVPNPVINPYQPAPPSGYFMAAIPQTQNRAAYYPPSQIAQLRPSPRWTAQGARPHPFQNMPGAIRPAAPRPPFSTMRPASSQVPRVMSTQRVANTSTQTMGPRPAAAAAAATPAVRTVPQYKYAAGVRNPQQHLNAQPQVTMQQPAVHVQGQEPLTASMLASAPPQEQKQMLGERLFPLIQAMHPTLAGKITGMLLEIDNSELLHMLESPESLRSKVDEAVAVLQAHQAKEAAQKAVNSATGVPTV
CSC inhib = cancer stem cell viability inhibitors, primary screen, luminescence; cancer stem cell-like cells viability; inhibition, % at 7.5 µM; 300,000 compounds, 1.1% hits;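 active = mean at 75% or more and at least half the replicates too; inconclusive = mean and replicates disagree; tested in HMLE shEcad cells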;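 also: 0% = median of negative and 100% = median of positive control wells; the first replicate is given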
eIF4H inh retest = also measured in eIF4H inh; calls as there; inhibition, %; compound at 20 µM; confirmation average;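 mean of two retest wells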
PABP FP inh retest = second read-out of PABP FP inh, no call of its own (marks repeat the call); inhibition, %; compound at 20 µM; confirmation repeats;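 mean of two retest wells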
MT1-MMP act inh RFP = recorded beside MT1-MMP act inh, whose call it bears; RFP signal change, %; measured here: RFP expression control read;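 0 = vehicle wells; hits needed this value within 50% of zero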
* marks the source's active call; other numbers are inactive results; i = inactive; ? = inconclusive; . = no result given; & = joins results of further samples. Random draw from the library; overall some 2.9% were active at least once.

SMILES	Rce1 inhib	Env fusion inh	MT1-MMP act inh	MT1-MMP act inh RFP	eIF4H inh	Yeast UUG start	PABP FP inh	CSC inhib	others
COc1ccc(C2CC(c3ccccc3)n3nnnc3N2)cc1 (configuration not stated)	i	?	-1	-2	-8	-23	6	-17
COc1ccc(S(=O)(=O)N(C)CC(=O)NCc2ccco2)cc1OC	i	6	0	2	9	-11	15	-8
CC(=O)N1c2ccc(S(=O)(=O)N3CCCC(C(=O)N4CCC(C)CC4)C3)cc2CC1C (configuration not stated)	i	3	1	-15	2	-10	-14	-15
O=C(CSc1ccc(Br)cc1)NCC1CCCO1 (configuration not stated)	i	-7	1	3	5	.	8	-12
O=C(CCN1C(=O)C2C3C=CC(C3)C2C1=O)N1CCN(c2ccc(F)cc2)CC1 (configuration not stated)	.	.	-2	2	-5	-6	-9	-14
COc1cc(CNc2ncn[nH]2)ccc1OCc1ccccc1C	i	-22	1	1	-3	-27	0	6
Cc1ccc(S(=O)(=O)N(CC(=O)N2CCOCC2)c2ccc(C(C)C)cc2)cc1	.	11	-6	2	-4	9	-8	-5
CCN(CC)c1ccc(/C=C/C(=O)c2ccc(Br)cc2)cc1	i	.	-108	-1	?	.	-14	62
Cc1nc(NS(=O)(=O)c2ccccc2)sc1NC(=O)Nc1ccccc1	i	0	12	1	2	.	6	-1
CC(C)c1ccc(S(=O)(=O)N2CCN(CC(O)CN3CCOCC3)CC2)cc1 (configuration not stated)	.	5	2	6	.	-8	.	.
COc1ccc(N(CC(=O)O)S(=O)(=O)c2c(C)n[nH]c2C)cc1	i	2	0	3	2	.	20	-6
COc1ccc(-c2[nH]ncc2CN2CCC(OCc3cccnc3)CC2)c(F)c1	i	4	1	-2	-1	-12	13	16
COc1ccc(S(=O)(=O)N(C)c2ccc(C(=O)Nc3ccccc3C(=O)N3CCOCC3)cc2)cc1OC	i	4	0	-1	-1	-9	9	.
CCn1nc(CC(C)C)cc1C(=O)N1CCCC(Nc2ccc(OC)cc2)C1 (configuration not stated)	i	-3	0	3	7	-13	-2	-4
CC(=O)NC(Cc1cnc[nH]1)C(=O)O (configuration not stated)	i	-15	-7	6	-7	-4	-3	-9
COc1ccccc1N1CCN(C(=O)CCNS(=O)(=O)c2ccc(Br)s2)CC1	i	.	-4	-8	-11	-3	3	8
Cc1cc(C)n(-c2ccc(C(=O)OCc3ccccc3)cc2)n1	.	18	2	1	9	.	0	3
Fc1ccc(Oc2nccc(-c3ccc(Cl)cc3)n2)cc1	i	.	2	2	3	-19	1	-2
COc1cccc(CN2CCN(Cc3ccc(C#CC(C)(C)O)s3)CC2CCO)c1 (configuration not stated)	i	33	0	-1	-4	-5	0	-14
Nc1c(-c2ccccc2)cnc2c(-c3ccccc3)cnn12	i	-369	1	-7	4	-25	-4	8
O=C(Nc1cccc(C(F)(F)F)c1)C1Cc2c(-c3ccc(Cl)cc3)ccnc2O1 (configuration not stated)	.	14	-1	-16	.	-1	.	.
COC(=O)C(C)Oc1ccc(=O)[nH]n1 (configuration not stated)	i	.	1	3	-11	-14	-4	8
Nc1nonc1C(=O)N/N=C/c1cccc([N+](=O)[O-])c1	i	.	-5	0	-5	-14	-8	-12
Cc1ccc(S(=O)(=O)N2CCN(C(=O)CCN3C(=O)c4ccccc4C3=O)CC2)cc1C	i	.	-7	0	3	.	-4	.
CN1CCN(c2ncnc3c2ncn3[C@H]2CN(Cc3ccncc3)C[C@@H](CO)O2)CC1	.	11	-3	6	.	2	.	.
COc1ccc(Cl)cc1C(=O)NCCCN1CCOCC1	i	7	-1	2	-12	-5	-5	-4
Cc1ccc(CC2SC(=O)NC2=O)cc1Cl (configuration not stated)	.	-63	4	3	1	.	-7	-16
CC(C)CN(CC(C)C)c1nn[nH]n1	.	-6	0	2	.	2	.	.
N#CCSc1nc2scc(-c3cccs3)c2c(=O)n1CCc1ccccc1	i	-57	2	-1	-16	.	-13	55
CCOc1ccc(-c2nnc3sc(COc4ccc(Cl)cc4)nn23)cc1	i	.	1	0	-5	4	6	-8
COc1ccc2ccccc2c1/C=N\NC(=O)c1cccnc1	i	7	-2	4	.	-9	.	-11
COC(=O)CNC(c1ccccc1)c1cc(C)ccc1NC(=O)c1cccc(Cl)c1 (configuration not stated)	i	11	-16	-8	3	.	6	17
COC(=O)c1oc2ccc(Cl)cc2c1-n1cccc1	i	2	2	4	2	3	3	-8
COc1ccc(S(=O)(=O)N2CCN(C(=S)Nc3ccc(S(N)(=O)=O)cc3)CC2)cc1	i	4	3	1	-1	-14	0	-3
CC(=O)Nc1c2c(nn1-c1cccc(Cl)c1)CS(=O)C2 (configuration not stated)	i	13	3	5	-9	-17	-2	-7
O=C(NCCN1CCCC1)C(c1ccccc1)c1ccccc1	i	-27	0	3	-8	-2	-3	-4
O=C(NCc1ccco1)C1CC(c2ccc(F)cc2)=NO1 (configuration not stated)	i	-20	-7	-9	-5	-8	-7	15
O=C(/C=C/c1ccccc1)Oc1cccc(C(=S)N2CCOCC2)c1	i	-7	-3	0	0	-16	-8	2
CCOCCCNC(=O)C(NC(=O)c1cnccn1)c1ccc(OC)cc1 (configuration not stated)	i	.	3	3	3	1	-9	3
O=C(NCc1nnc(SCc2ccc(F)cc2)n1-c1ccc(F)cc1)C12CC3CC(CC(C3)C1)C2	i	36	-1	-4	-7	-3	-20	34
O=C(O)CCCNC(=O)C(c1ccccc1)c1ccccc1	i	8	5&-1	9&1	-8&-3	.	-16&8	3&-9
Cc1noc(C)c1S(=O)(=O)N(C)C[C@H]1Oc2ccc(NC(=O)CCC(F)(F)F)cc2C(=O)N([C@H](C)CO)C[C@@H]1C	.	9	3	1	.	4	.	-17
COC(=O)C1=CN(c2ccc(F)cc2)C=C(C(=O)OC)C1c1ccc([N+](=O)[O-])cc1	i	28	-4	-4	-1	-1	-8	15
c1cncc(-c2nc3ccccn3c2Nc2ccc3c(c2)OCCO3)c1	i	-7	-4	-5	5	-12	3	4
COc1ccc(N(Cc2ccccc2)C(=O)c2ccccc2[N+](=O)[O-])cc1	i	.	-1	4	2	-8	-5	-16
COc1ccc(N2CCN(CCCNS(=O)(=O)c3ccc4c(c3)oc(=O)n4C)CC2)cc1	i	3	3	2	0	-5	0	14
CN1C(=O)c2ccc(C(=O)NCc3ccco3)cc2C1=O	i	5	0	7	-12	-17	1	3
O=S(=O)(NCc1c(Cl)cccc1Oc1ccccc1)c1ccc(F)cc1	.	11	2	-8	-7	.	-1	3
Cc1c(C)c2cc(Cl)c(OCC(=O)NCCCn3ccnc3)cc2oc1=O	i	-32	2	3	-6	.	0	4
CCOc1ccc(C(N)=O)cc1OC	i	.	1	3	-7	-18	-1	-5
Nc1nc(CN2CCN(c3ccccn3)CC2)nc(Nc2ccc(F)cc2)n1	.	-52	6	-2	-8	-15	3	.
CC1CCCCN1C(=O)CSc1ccc(-c2ccc(F)cc2)nn1 (configuration not stated)	i	-64	7	3	-6	2	5	-4
O=C(CCCN1C(=O)/C(=C\c2ccccc2)SC1=S)Nc1ccc(O)cc1	i	24	1	-5	0	-18	4	34
CN(C)c1ccc2c3c(cccc13)C(=O)N(c1ccccc1)C2=O	i	.	.	.	?	.	?	-1
COc1cccc(C(=O)NC(C)CCc2ccccc2)c1 (configuration not stated)	i	-1	-1	-2	-3	-19	-3	-15
CCC(C)(C)NC(=O)C(c1ccco1)N(C(=O)CNC(=O)c1cccs1)c1cccnc1 (configuration not stated)	.	-46	1	0	-13	.	-5	-6
CCCCn1c(N)c(N(CC(C)C)C(=O)CN2C(=O)NC3(CC(C)CC(C)(C)C3)C2=O)c(=O)[nH]c1=O (configuration not stated)	i	2	2	0	.	.	.	6
O=C(CCc1nc2sc3c(c2c(=O)[nH]1)CCCC3)Nc1cccc(Cl)c1	i	1	-3	1	.	.	.	.
CCc1ccc(S(=O)(=O)N2CCCC(N3CCN(c4ccc(OC)cc4)CC3)C2)cc1 (configuration not stated)	i	-41	-2	-8	-5	-15	0	2
O=C(CCc1nc(-c2ccccc2F)no1)NC1CCN(Cc2ccccc2)CC1	i	.	2	-3	-2	-1	-5	2

The list goes on (2 carried over from the part before).
SMILES	Rce1 inhib	Env fusion inh	MT1-MMP act inh	MT1-MMP act inh RFP	eIF4H inh	Yeast UUG start	PABP FP inh	CSC inhib	others
CCc1ccc(S(=O)(=O)N2CCCC(N3CCN(c4ccc(OC)cc4)CC3)C2)cc1 (configuration not stated)	i	-41	-2	-8	-5	-15	0	2
O=C(CCc1nc(-c2ccccc2F)no1)NC1CCN(Cc2ccccc2)CC1	i	.	2	-3	-2	-1	-5	2
CC(C)CN(Cc1c(O)ccc2c(=O)c(-c3ccccc3)coc12)CC(C)C	i	-2	-32	-25	-7	-1	-5	-1
OC(CCN1CCOCC1)c1ccccc1 (configuration not stated)	.	7	6	3	8	-27	3	-8
CN(c1nc2ccccc2[nH]c1=O)C1CCCCC1	i	-31	-9	-2	44	-21	16	10
Cc1cc(C)c(C)c(S(=O)(=O)Nc2ccc(C(N)=O)cc2)c1C	i	3	6	-3	-2	.	1	-13
CCN(CC)S(=O)(=O)c1ccc(N2CCOCC2)c(NC(=O)c2c3c(nc4ccccc24)CCC3)c1	i	.	-2	-7	54	-12	-4	-12	eIF4H inh retest=-3;PABP FP inh retest=-4
O=C(NCc1ccccc1F)C1CCCN(C(=O)Nc2ccccc2)C1 (configuration not stated)	i	-3	1	1	-3	-14	1	26
CCN(CC)C(=O)c1cccc(NC(=O)c2ccccc2OCc2c(C)noc2C)c1	.	-12	-2	-3	.	-3	.	-8
COCCNC(=O)Cn1cnc2sc(C)c(S(=O)(=O)N3CCN(c4ccccc4OC)CC3)c2c1=O	.	-12	2	5	6	-19	11	-10
COC(=O)CCCC1=CC2=CC(=O)C(C)(OC(=O)c3cccs3)C(=O)C2=CN1CCc1c[nH]c2ccccc12 (configuration not stated)	i	-3	-2	0	5	-6	15	-15
CCn1cc(C(=O)NCCCOC(C)C)c(=O)c2cc(S(=O)(=O)N3CCC(C)CC3)ccc21	i	10	-1	2	-12	-11	-12	-3
Cc1cc(C(=O)OCC(=O)Nc2ccccc2[N+](=O)[O-])c2ccccc2n1	i	.	7	1	-5	.	-4	-10

Among those listed so far, these contain bromine.
SMILES	Rce1 inhib	Env fusion inh	MT1-MMP act inh	MT1-MMP act inh RFP	eIF4H inh	Yeast UUG start	PABP FP inh	CSC inhib	others
O=C(CSc1ccc(Br)cc1)NCC1CCCO1 (configuration not stated)	i	-7	1	3	5	.	8	-12
CCN(CC)c1ccc(/C=C/C(=O)c2ccc(Br)cc2)cc1	i	.	-108	-1	?	.	-14	62
COc1ccccc1N1CCN(C(=O)CCNS(=O)(=O)c2ccc(Br)s2)CC1	i	.	-4	-8	-11	-3	3	8
